Bioassay records from PubChem BioAssay.
D2 ag – activates the human D2 dopamine receptor; activation, % (test concentration not listed); 360,000 compounds, 0.084% hits; P14416; DiscoveRx PathHunter D2 beta-arrestin, luminescence, 90 min; 100% = 57 uM dopamine signal; AID 624465; in the data active = activation above about 40%; inconclusive = about 15% to 40%; inactive = below about 15%; note: compound concentration not given in the record; the text of the record calls up to 30% inactive
Target sequence (P14416 whole entry, looked up): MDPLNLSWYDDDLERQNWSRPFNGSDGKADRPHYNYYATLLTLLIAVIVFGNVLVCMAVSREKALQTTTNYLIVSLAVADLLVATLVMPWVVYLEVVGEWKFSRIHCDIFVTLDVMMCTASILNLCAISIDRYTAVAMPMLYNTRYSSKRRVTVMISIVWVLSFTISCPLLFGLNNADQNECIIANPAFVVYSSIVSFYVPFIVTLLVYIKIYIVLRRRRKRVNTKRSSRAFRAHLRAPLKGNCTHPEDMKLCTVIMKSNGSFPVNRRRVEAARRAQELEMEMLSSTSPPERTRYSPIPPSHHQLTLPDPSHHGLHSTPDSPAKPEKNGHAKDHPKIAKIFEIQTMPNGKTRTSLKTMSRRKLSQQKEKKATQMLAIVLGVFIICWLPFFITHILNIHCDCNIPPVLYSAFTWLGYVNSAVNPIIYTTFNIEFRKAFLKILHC
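DiscoveRx PathHunter D2 beta-arrestin cells (2,100/well) attached overnight, then compound-stimulated 90 min at 37 C in HBSS/10 mM HEPES/0.1% Tween-20 buffer; beta-galactosidase complementation read by luminescence after 1 h at ambient temperature. Dopamine 57 uM final (EC100) as control.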
TRPML1 blocker – human mucolipin-1 channel inhibition. Q9GZU1. 390,000 compounds, 0.02% hits. TRPML1-inducible cells, Ca2+ dye fluorescence, FDSS; hits give low values; inhibition of EC80 agonist-evoked calcium signal. activity change, negative = inhibition, % (no concentration beside the values); in the data active means activity change below about -50%; inconclusive means about -30% to -50%; inactive means above about -30%;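 note: stimulus is agonist 54-4 at its EC80 concentration; % is set by controls: 0 for no effect and ±100 for the full control effect; compound concentration not given in the record; the text of the record puts the active cut at -80%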
Target sequence (Q9GZU1 whole entry, looked up): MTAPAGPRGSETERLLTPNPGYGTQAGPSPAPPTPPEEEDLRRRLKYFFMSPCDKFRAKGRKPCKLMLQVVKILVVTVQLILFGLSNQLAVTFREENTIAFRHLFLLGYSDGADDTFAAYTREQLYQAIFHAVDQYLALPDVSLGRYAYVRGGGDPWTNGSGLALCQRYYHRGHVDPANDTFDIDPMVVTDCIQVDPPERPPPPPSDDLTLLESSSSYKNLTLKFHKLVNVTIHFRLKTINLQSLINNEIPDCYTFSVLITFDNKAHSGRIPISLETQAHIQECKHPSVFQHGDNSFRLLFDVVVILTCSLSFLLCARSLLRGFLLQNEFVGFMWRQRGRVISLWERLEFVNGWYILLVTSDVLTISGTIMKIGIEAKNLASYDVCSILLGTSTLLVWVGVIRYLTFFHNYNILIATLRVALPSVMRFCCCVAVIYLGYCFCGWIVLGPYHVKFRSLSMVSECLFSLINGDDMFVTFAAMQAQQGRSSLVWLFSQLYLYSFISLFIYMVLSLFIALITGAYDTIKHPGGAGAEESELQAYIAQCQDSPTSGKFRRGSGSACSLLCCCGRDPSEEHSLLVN
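Calcium fluorescence in TRPML1-DL cells induced overnight with Tet: a 110 s read after compound pin addition, then a 110 s antagonist read after challenge with 54-4 at 4 uM final (EC80).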
Six1-Eya2 inh – Six1/Eya2 interaction inhibition; AID 651725; activity change, % (test concentration not listed); Q15475+O00167; 360,000 compounds, 0.56% hits; AlphaScreen GST-Six1/His-Eya2 binding, biochemical; hits give low values; control for the full effect not named in the record; in the data active = activity change below about -65%; inconclusive = about -30% to -65%; inactive = above about -30%; note: % is set by controls: 0 for no effect and ±100 for the full control effect
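Six1/Eya2 binding was read as AlphaScreen signal after compounds were pinned into GST-Six1 plus His-tagged Eya2 (5X stock 250/500 nM) in pH 8.0 Tris/NaCl/TCEP buffer, beads added, then incubated 1 h, 37 C, dark.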
TRPML1 agonist – agonists of human TRPML1 channel | activation, % (concentration not given with the values) | Q9GZU1 | TRPML1-expressing cells, Ca2+ dye fluorescence, FDSS; host cell line not named in the record; reference of the full effect not given here | 410,000 compounds, 0.12% hits; in the data active = activation above about 50%; inconclusive = about 30% to 50%; inactive = below about 30%; note: 0% is about no effect; the text of the record puts the active cut at 80%
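Calcium fluorescence on an FDSS kinetic reader gave the read-out. Tet-induced TRPML1-DL cells were plated overnight, dye-loaded (Ca8 with quencher, 45-90 min, room temperature, dark), then read 110 s after compound addition, and again 110 s after 4uM final 54-4 (EC80).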
PINK1 modulator – changes PINK1 expression | 410,000 compounds, 0.2% hits | PINK1 immunofluorescence, high-content cytometry, 24 h | Potency, µM (top dose mostly 76.6 µM), for inactives: top-dose activation (PINK1 increase), most hits filed as activators | AID 624263; active = well fitted activation curve with a large enough effect; inconclusive = small, poorly fitted or top-dose-only effect; inactive = flat fitted curve, though single readings scatter; cell line not stated here;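 note: potency is the fitted concentration of half-maximal effect; % of control where 0% means no effect; nearly all actives have a fitted effect of over 65% in size; a mitochondrial uncoupler was the plate control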
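Fluorescence from anti-PINK1 antibody, together with nuclear and cell stains, was scanned on a laser-scanning cytometer. Before staining, stable-line cells were incubated 24 hours with compounds at 5 concentrations; primary antibody 12 h at 10 degrees C.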
D2 potentiator – human D2 receptor positive allosteric modulation; DiscoveRx D2 beta-arrestin cells, luminescence, 90 min; 100% = 57 uM dopamine signal; potentiation, % (concentration not given with the values); 360,000 compounds, 0.23% hits; AID 624464; active = potentiation of 50% or more; inconclusive = 30% to 50%; inactive = 30% or less;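 note: tested on top of an EC20 dose of dopamine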
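PathHunter D2 cells, attached overnight at 37 deg C, received compound in DMSO plus dopamine at EC20 (50 nM final) for 90 min at 37 deg C. Beta-arrestin recruitment was read as luminescence after 1 h with detection reagent at ambient temperature.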
Active calls of the source: *; ? = inconclusive; · = no result given; & = joins results of further samples; [ ] = another dose, or the depositor's remark.

SMILES | D2 ag | TRPML1 blocker | Six1-Eya2 inh | TRPML1 agonist | PINK1 modulator | D2 potentiator
COc1cccc(CNC(=O)c2cc3ccccn3n2)c1 | 0.5 | 3.0 | -1.5 | -0.7 | -0.3% | -0.9
O=S(=O)(c1cccs1)N1CCN(c2ccc(Cl)cc2)CC1 | 2.0 | 32.9&2.8 | 2.7 | 0.2&-0.3 | 2.3%&-0.4% | -2.5
C/C=C(\C)C(=O)Nc1cccc(C2=NOC3(C2)C[C@@H](C(N)=O)N(C(=O)c2ccccc2C(=O)c2ccccc2)C3)c1 (some centres not stated) | -0.8 | -11.8 | -3.2 | 3.5 | -1.6% | -1.8
CC(=O)C[C@H](O)CC(=O)[C@@H]1OC(=O)CCCCCc2ccccc21 | -6.2 | 19.3 | 5.9 | -0.6 | 0.5% | -0.1
C=C1c2cc(C)c(C)cc2NC(=O)N1c1ccccc1 | -6.1 | -16.8 | 0.6 | -0.6 | -0.9% | -18.6
COc1ccc(C2CC(=O)N(Cc3ccc(C)cc3)c3c2c(C)nn3-c2nc(C)cc(C)n2)c(OC)c1 (configuration not stated) | · | -2.3 | · | -0.8 | 0.2% | ·
O=C(CSc1ccc2c(c1)OCCO2)Nc1ccccc1 | 0.7 | -3.7 | -7.8 | -0.5 | -0.1% | -14.1
CC(C)(C)C(=O)Nc1nc(=S)ss1 | -4.7 | -2.3 | -4.5 | 0.0 | ? | -12.7
Cc1cccc(C)c1NC(=O)CN(C)C(=O)CCC(=O)c1ccccc1 | -0.5 | 1.8 | 4.5 | -0.5 | 3.6% | -0.8
Cc1ccc2nc(NC(=O)C3CCN(S(=O)(=O)c4cc([N+](=O)[O-])ccc4Cl)CC3)sc2c1 | ? | 3.3 | -17.5 | 0.3 | -3.3% | 58.8*
O=C(COc1ncnc2ccccc12)NCCC1=CCCCC1 | 1.7 | -14.9 | 14.6 | -0.6 | -0.5% | -12.3
COC(=O)Cc1cc(=O)oc2cc(O)ccc12 | -0.4 | -5.7 | 6.6 | 1.0 | 2.8% | -1.0
CCOC(=O)C1=C(COC(=O)c2cccs2)NC(=O)NC1C (configuration not stated) | -3.0 | -4.1 | 5.2 | -0.3 | 2.3% | -19.8
C#CC(CC)(CC)NC(=O)NC1CCCCC1 | -6.1 | -12.9 | 3.4 | 1.6 | -0.2% | -3.2
COc1ccccc1NC(=S)NC12CN3CN(CN(C3)C1)C2 | 0.2 | 0.3 | 0.1 | -0.8 | 1.1% | -8.0

Reprinted from the part before: 2 entries, followed by the next part.
SMILES | D2 ag | TRPML1 blocker | Six1-Eya2 inh | TRPML1 agonist | PINK1 modulator | D2 potentiator
C#CC(CC)(CC)NC(=O)NC1CCCCC1 | -6.1 | -12.9 | 3.4 | 1.6 | -0.2% | -3.2
COc1ccccc1NC(=S)NC12CN3CN(CN(C3)C1)C2 | 0.2 | 0.3 | 0.1 | -0.8 | 1.1% | -8.0
Cc1oc(-c2ccccc2F)nc1CS(=O)(=O)CC(=O)N1CCN(c2cccc(C(F)(F)F)c2)CC1 | · | -11.0 | · | 2.3 | 4.2% | ·
Cc1ccc(S(=O)(=O)N(C)C)cc1NC(=O)COC(=O)Cc1n[nH]c(=O)c2ccccc12 | 2.3 | -6.6 | -2.2 | 0.3 | 0.9% | -27.5
O=C(CSCc1ccc(Cl)cc1)NN=C1CCCC1 | 2.1 | 34.8 | 0.7 | 0.5 | -0.7% | -12.8
Cc1ccc(NC(=O)COC(=O)CNC(=O)c2ccc3ccccc3c2)c([N+](=O)[O-])c1 | 2.2 | 14.3 | -11.6 | 0.0 | -1.9% | -3.9
COCC(=O)Oc1c(S(=O)(=O)c2ccccc2)c(C)nn1C(C)(C)C | 0.7 | -11.1 | 2.8 | -0.7 | -2.3% | -3.0
COc1ccc(CCNS(=O)(=O)c2cn(C)nc2C)cc1 | 1.7 | 13.1 | 4.7 | 0.7 | 0.0% | -19.9
O=C(Nc1ccc(Br)cc1F)c1cc(S(=O)(=O)NCc2ccc(F)cc2)ccc1F | · | -7.6 | · | 1.2 | 8.6% | ·
CCn1c(CNC(=O)COc2ccc(C(C)C)cc2)nnc1SCC(=O)Nc1ccccc1C(C)C | 3.4 | 2.3 | 3.8 | 0.2 | -5.0%[38.3 µM] | -13.9
COc1ccc(CCNC(=O)CSc2nnc(C(C)N(C)C)n2Cc2ccccc2)cc1OC (configuration not stated) | 1.1 | 5.4 | 3.7 | 1.3 | 1.8% | 3.4
O=S(=O)(c1ccc(N2CCCC2)nc1)N1CCOCC1 | -4.2 | 1.1 | -2.4 | 0.2 | 3.9% | ?
O=C(CSc1nc2ncccc2[nH]1)NC1CCCCC1 | 4.7 | 7.4 | 2.8 | -0.6 | 1.4% | 4.3
Cn1c(N)c(C(=O)COC(=O)Cc2ccc(Cl)cc2Cl)c(=O)n(C)c1=O | 14.3 | 30.8 | -24.0 | 1.2 | 1.1% | -16.7
COc1ccc(C(=O)NC(=S)Nc2ccc(CN3CCOCC3)cc2)cc1Cl | -2.6 | 20.6 | -24.6 | 0.6 | 0.0% | -20.1
Cc1ccc(NC(=O)C2CCN(C(=O)NC3CCCCC3)CC2)c(C)c1 | 0.2 | 38.4 | -1.0 | 2.1 | -2.6% | -3.0
CCNC(=O)CC1C(=O)N(c2ccccc2)C(=O)N1CCC(C)C (configuration not stated) | 2.5 | 9.7 | 12.6 | 0.6 | 0.9% | -6.9
CCCc1cc(NCc2ccccn2)n2nc(C)c(-c3ccccc3)c2n1 | 0.6 | 3.8 | 12.1 | 1.3 | 18.9% | 1.4
COc1ccc(C2=NOC(Cn3nc(-c4ccccc4)cc3C(=O)NCc3ccccc3OC)C2)cc1 (configuration not stated) | -2.5 | -5.4 | -0.6 | 0.5 | 1.6% | 2.0
COc1ccc(C(c2c(NC(C)=O)sc3c2CCCC3)N2CCN(CCO)CC2)cc1OC (configuration not stated) | -1.0 | 10.0 | -2.8 | -0.7 | 1.2% | -5.9
CC(=O)Nc1ccc(S(=O)(=O)NCCC(=O)OCC(=O)NC(C)c2ccc(Cl)cc2)cc1 (configuration not stated) | -3.0 | -4.8 | 3.3 | 0.4 | 3.1% | -1.8
S=c1nc[nH]c2c1sc1nc(N3CCOCC3)c3c(c12)CCCC3 | -2.0 | 12.2 | -3.0 | 1.9 | -1.2% | -6.0
CN(C(=O)c1cccc(NC(=O)Cc2ccc(NC(=O)C3CCCN(C(=O)C4CCCC4)C3)cc2)c1)C1CCC1 (configuration not stated) | 1.9 | 5.4 | -12.4 | 1.1 | -0.3% | 3.6
Cn1c(O)c(N=Nc2ccccc2[N+](=O)[O-])c2ccccc21 | -2.4 | -2.9 | -4.5 | 0.3 | 3.7% | -22.3
CCc1n(CC(O)COCC2CC=CCC2)c2ccccc2[n+]1C (configuration not stated) | -2.0 | -4.6 | 4.1 | -1.2 | -1.9% | -16.4
O=C(COC(=O)c1cccs1)c1ccc2ccccc2c1 | -5.6 | 5.6 | 8.7 | 0.5 | 2.5% | -8.2
CC(=O)N1c2ccccc2C(=O)C1N1CCN(c2ccc(Cl)cc2)CC1 (configuration not stated) | · | 3.2 | · | 1.4 | 0.0% | ·
O=C1C=CC(O)(c2cc(=O)c3c(O)cc(O)cc3o2)C=C1 | -4.9 | -3.2 | -18.5 | 2.6 | -1.5% | -15.8
CC(=O)Nc1ccc(S(=O)(=O)N2CCN(Cc3cccc([N+](=O)[O-])c3)CC2)cc1 | -4.2 | -7.4 | -5.2 | -0.8 | -0.6% | -12.0
Cc1ccc(NC(=O)CN2C(=O)c3cccnc3Sc3ccccc32)c(Br)c1 | · | -17.0 | · | 0.8 | 0.4% | ·
CC(C)CC(=O)Nc1ccc(C(=O)COC(=O)C2=COCCO2)cc1 | 3.2 | -6.4 | 5.1 | 0.3 | -0.8% | -9.5
CCOC(=O)N1CCN(c2ncc3c(n2)CC(c2ccccc2O)CC3=O)CC1 (configuration not stated) | · | 10.9 | · | 5.4 | -0.4% | ·
CCN(CC(=O)Nc1c(F)cccc1F)C(=O)c1ccc(-n2cncn2)c([N+](=O)[O-])c1 | 2.4 | 7.9 | 3.1 | 0.2 | -0.4% | -1.2
Cc1ccc(Oc2nnc(-c3ccccc3)c3ccccc23)cc1 | -1.7 | -2.6 | -0.8 | -0.6 | 2.3%[38.3 µM] | -19.9
O=Cc1cccn1-c1nccc(-c2ccco2)n1 | 0.6 | 4.5 | -0.2 | -0.7 | ? | 0.2
CC(=O)N1CCN(C(=O)c2cc(-c3ccc(C)o3)nc3ccccc23)CC1 | -1.8 | 9.8 | -2.4 | 0.5 | -1.9% | -68.4
O=C(Nc1cccc(Cl)c1)c1cncn1-c1ccc(F)cc1 | -0.1 | -3.1 | 4.1 | 1.1 | 1.6% | 0.6
Cc1ccc(S(=O)(=O)NC(CC(=O)O)c2ccccc2)c(C)c1 (configuration not stated) | -0.6 | 17.5 | 4.3 | 0.2 | · | -14.0
CC(C)CC(=O)Nc1ccc(C(=O)NNC(=S)NC(=O)C2CCCCC2)cc1 | -3.0 | -5.0 | -1.3 | 1.6 | · | 9.6
COc1ccc(NC(=O)C2(C)CCN2C)cc1OC (configuration not stated) | -3.9 | · | 1.2 | -0.3 | 2.2% | -11.2
CCCN(CCC)CCNC(=O)Cn1cnc2sc(C)c(S(=O)(=O)N3CCC(C)CC3)c2c1=O | · | 15.6 | · | -0.1 | 0.6% | ·
Cn1c(=O)[nH]c(=O)c2c1nc(CN1CCN(c3ccccc3)CC1)n2Cc1c(F)cccc1Cl | · | 3.1 | · | 0.6 | 0.7% | ·
CCc1ccc(Cc2cnc(NC(=O)c3ccc4c(c3)CC(c3ccccc3)OC4=O)s2)cc1 (configuration not stated) | · | -15.8 | · | 1.6 | -0.5% | ·
Cc1cccc(OCC(=O)Nc2cccc(O)c2)c1 | -2.5 | -10.4 | -1.9 | -0.1 | 4.6% | 2.3
CCC(NC(=O)Nc1cc(C)on1)(C(F)(F)F)C(F)(F)F | 0.9 | -5.3 | 1.2 | 1.2 | 9.9% | -0.5
CCC(C)NC(=O)c1ccc2c(c1)N=C(C)c1cc(C)ccc1S2 (configuration not stated) | · | -0.1 | · | -1.0 | 4.6% | ·
COCC(=O)c1[nH]c2ccccc2c1C | 0.2 | 44.0 | -2.0 | 2.2 | 0.9% | -6.3
Cc1nc(SCc2ccc(O)c([N+](=O)[O-])c2)c([N+](=O)[O-])[nH]1 | -6.7 | -4.2 | -3.2 | -0.5 | 0.3% | -16.9
Cc1ccc(S(=O)(=O)N2CCC(C(=O)Nc3ccc(C)c(Cl)c3)CC2)cc1 | · | -19.7 | · | -0.1 | 1.7% | ·
CCOc1cc(C2C(C(N)=O)=C(C)Nc3ncnn32)cc(Br)c1O (configuration not stated) | · | -8.8 | · | 0.9 | -4.2% | ·
COc1ccc(C(C(=O)NC2CCCCC2)N(C(=O)c2ccco2)c2ccc(-n3cnnn3)c(C)c2)cc1 (configuration not stated) | -1.6 | -0.1 | 0.5 | -0.9 | 0.9% | -18.2
